# Bioassay records: PubChem, several laboratories
# HSF1 activator = HSF-1 activators, primary screen, NIH3T3-HGL cells, MG132 stress, luminescence, single point. NIH3T3-HGL HSF-1 luciferase reporter, 8 h; 100% = twice DMSO control signal. activation, % at 9 µM. actives 1.7% (n = 300,000). AID 504408, 2011;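 active means mean replicate activation of at least 50% with a set share of replicates each reaching 50%; inconclusive means only one of those two conditions met; inactive means mean below 50% and too few replicates reaching it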;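 further: 0% = median of the neutral control wells and 100% = twice that signal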
# GSK3A inh = blockers of GSK3A enzyme activity – biochemical, luminescence, cell-free homogeneous, HTS, primary screen | Glycogen synthase kinase-3 alpha (Homo sapiens), P49840 | GSK-3 alpha kinase, ADP-Glo luminescence, 60 min | inhibition, % at 10 µM | actives 0.1% (n = 320,000) | AID 2650, 2010;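 in the data active means inhibition above about 50%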;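 further: GST-tagged GSK-3 alpha with peptide substrate and 25 µM ATP; 0% = DMSO neutral wells and 100% = GW8510 positive control wells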
# AI-2 QS mod = Vibrio harveyi AI-2 quorum sensing modulators, primary screen, JMH597 strain, luminescence/OD600 ratio; Vibrio harveyi JMH597 AI-2 luminescence/OD600 ratio, 9 h; hits give low values; strain lacks LuxN and CqsS sensors; 0 = neutral-control median; activity change, % at 7.5 µM; actives 0.4% (n = 300,000); AID 2094, 2009; in the data active means activity change below about -75%, passing the limit was not always enough; inconclusive means no clear call, values can overlap the other calls;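 further: luminescence divided by OD600 gain over 9 h not by final OD600 alone; inactives centre near 13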
# PolyA inhibitor = polyadenylation inhibitors in yeast reporter cells, primary screen, luminescence, S. cerevisiae | S. cerevisiae SKY197-pL101 polyadenylation reporter, beta-gal luminescence; efflux-impaired pdr1/pdr3 knockout yeast; score 100 = 6 SD above DMSO | calls only at 12 µM | actives 0.02% (n = 300,000) | AID 1875, 2009;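 active means lowest replicate activity score at least 50, where 100 means six control SD above control mean; inconclusive means lowest score under 50 but half or more replicates reach 50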;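 further: yeast exposed to compound for 9 h at 30 °C; higher score means more reporter readthrough which indicates perturbed polyadenylation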
# HSF1 inh = HSF1 inhibitors in luciferase reporter cells, primary screen, cell-based, NIH3T3, luminescence | NIH3T3-HGL HSE-luciferase, MG132-induced, luminescence 8 h; hits give low values | activity change, negative = inhibition, % at 7.5 µM (by protocol) | actives 0.77% (n = 300,000) | AID 2098, 2009;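 active means more than half of replicate wells show activity change below -50%, luminescence cut by over half; inconclusive means some wells, but at most half, below -50%; inactive means no replicate well below -50%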;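 further: luciferase reports HSF-1 transcriptional activity via heat shock element; 0% = median of DMSO wells and -100% = zero luminescence signal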
# HSP90 refold inh = HSP90 inhibitors, primary screen, cell lysate, luminescence; Heat shock protein HSP 90 (rabbit reticulocyte lysate; luciferase refolding); Rabbit reticulocyte lysate, luciferase refolding luminescence, 3 h; inhibition, % at 5.6 µM; actives 0.91% (n = 290,000); AID 1789, 2009;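 active means inhibition above the screen-wide mean plus 3 SD, computed separately per campaign, cut at about 16% in these data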;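 further: 0% = DMSO wells and 100% = 60 µM geldanamycin wells; inhibitors lower the luminescence because luciferase stays unfolded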
# Platelet DG rel = inhibitors of platelet dense granule secretion, primary screen, cell-based, MLPCN, human platelets; AID 1663, 2009; human platelet-rich plasma, SFLLRN dense granule ATP release, luminescence; actives 0.22% (n = 300,000); inhibition, %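 (compounds screened at 7.5 µM in platelet-rich plasma)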;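 active means mean replicate score, as percent of positive control, at or above 50; inconclusive means mean below 50 but at least one replicate at or above 50; inactive means mean and every replicate below 50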
# HDAC3 inh = HDAC3 deacetylase inhibitors, primary screen, biochemical, fluorescence, cell-free homogeneous. recombinant HDAC3, fluorogenic peptide/trypsin coupled. Histone deacetylase 3 (Homo sapiens), O15379. AID 2718, 2010. inhibition, % at 8.3 µM. actives 0.15% (n = 320,000); in the data active means inhibition above about 26%, passing the limit was not always enough; inconclusive means no clear call, values can overlap the other calls
# Target sequence (O15379 whole entry, looked up): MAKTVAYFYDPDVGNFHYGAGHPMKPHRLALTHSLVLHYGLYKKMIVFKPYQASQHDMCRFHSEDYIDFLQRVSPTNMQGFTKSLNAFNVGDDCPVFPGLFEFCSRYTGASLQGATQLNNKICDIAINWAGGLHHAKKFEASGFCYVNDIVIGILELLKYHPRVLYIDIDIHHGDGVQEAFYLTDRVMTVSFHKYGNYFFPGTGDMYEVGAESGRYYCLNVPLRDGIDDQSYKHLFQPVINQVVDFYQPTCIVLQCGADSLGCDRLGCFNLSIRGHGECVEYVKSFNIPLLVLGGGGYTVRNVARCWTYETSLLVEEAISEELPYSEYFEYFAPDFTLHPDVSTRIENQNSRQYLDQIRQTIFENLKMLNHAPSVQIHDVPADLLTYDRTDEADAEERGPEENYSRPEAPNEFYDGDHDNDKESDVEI
# GSK3B inh = human GSK3beta kinase inhibitors, primary screen, biochemical, cell-free homogeneous, HTS. Glycogen synthase kinase-3 beta (Homo sapiens), P49841. GST-GSK3beta kinase, ADP-Glo luminescence, 60 min; hits give low values. activity score (negative = inhibition), % at 10 µM. actives 0.038% (n = 300,000);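 active means more than half of replicate wells score below -50%, meaning over 50% inhibition versus plate controls; inconclusive means some replicates but at most half score below -50%; inactive means no replicate scores below -50%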;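 further: 0% = median DMSO wells and -100% = median GW8510 positive control wells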
# Target sequence (P49841 whole entry, looked up): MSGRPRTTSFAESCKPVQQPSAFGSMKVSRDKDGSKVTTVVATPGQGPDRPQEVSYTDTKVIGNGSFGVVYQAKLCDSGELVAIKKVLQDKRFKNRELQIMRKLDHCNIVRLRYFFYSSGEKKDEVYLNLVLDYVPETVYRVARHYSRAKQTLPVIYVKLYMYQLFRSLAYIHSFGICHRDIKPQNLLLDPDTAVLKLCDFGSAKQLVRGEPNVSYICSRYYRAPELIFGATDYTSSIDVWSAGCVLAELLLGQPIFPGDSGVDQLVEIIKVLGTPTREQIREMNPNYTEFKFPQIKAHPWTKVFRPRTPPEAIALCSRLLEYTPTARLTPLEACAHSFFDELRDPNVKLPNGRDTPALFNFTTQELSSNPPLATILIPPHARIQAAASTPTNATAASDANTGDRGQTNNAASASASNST
#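 Assay system: GST-fused GSK3beta enzyme, cell-free / Medium: Tris pH 7.5 buffer with MgCl2, DTT, BSA, heparin / Also added: peptide substrate plus 25 µM ATP (final) / Compound: 10 µM single point / Timing: kinase reaction with compound 60 min at room temperature / Detection: ADP-Glo luminescence / Benchmarks: DMSO neutral wells and GW8510 at 20 µM as positive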
# * hit, by the source's call; i = inactive; ? = inconclusive; · = not tested or not shown.
HSF1 activator	GSK3A inh	AI-2 QS mod	PolyA inhibitor	HSF1 inh	HSP90 refold inh	Platelet DG rel	HDAC3 inh	GSK3B inh	mol
-3.2	-4.3	23.8	i	-12.7	-0.8	-0.5	7.9	4.9	Cc1nc2cc(S(=O)(=O)N3CCC(C(=O)O)CC3)ccc2n1C1CCCC1
41.4	-0.7	14.7	i	22.2	3.5	-2.5	?	-2.7	COc1ccc(/C=C/C(=O)NC(=S)N2CCSCC2)cc1
-15.5	2.7	4.7	i	-8.1	2.5	-32.0	2.0	2.3	CN(C)C(CNc1ncnc2sc3c(c12)CCCC3)c1ccco1 (centres undefined)
-18.8	0.2	26.1	i	4.2	·	-2.4	-1.8	-1.3	CCC(=O)OC1(C)C(=O)C=C2C=C(C3CC3)OC=C2C1=O (centres undefined)
·	·	·	·	·	-1.1	·	·	·	COc1cccc(-c2nc(-c3ccc(NC(=O)Cc4ccccc4OC)cc3)no2)c1
1.6	-0.8	33.6	i	-1.8	3.5	-2.7	1.6	-0.8	Cc1nn(-c2ccccc2)c2[nH]c(=O)c(CNCc3ccc4c(c3)OCO4)cc12
12.9	7.5	18.3	i	1.8	-0.9	8.9	-2.9	1.8	Nc1nc(N)c2sc3nc4c(cc3c2n1)CCC4
42.7	1.6	-1.8	i	15.0	-1.0	8.7	-6.3	-0.6	COc1ccc2cc(C(c3nnnn3C3CCCC3)N3CCc4ccccc4C3)c(=O)[nH]c2c1 (centres undefined)
15.5	1.0	-5.7	i	18.3	4.6	-4.6	13.3	-4.0	O=C(C1CC(c2ccc(F)cc2)=NO1)N1CCCCC1 (centres undefined)
32.6	-0.5	22.4	i	3.2	3.6	-1.0	-4.0	0.6	O=C(O)c1ccc(S(=O)(=O)N2CCSCC2)cc1
-5.6	-3.1	21.1	i	0.3	7.7	-0.7	4.3	-0.7	C=C1CCC2C(C)(C)[C@H](O)CC[C@@]2(C)[C@@H]1COc1cc(=O)oc2ccccc12 (some centres undefined)
-34.7	-6.8	12.9	i	-25.9	-1.1	2.5	4.8	-2.7	CCn1c(=O)c2c(cnn2C)c2ccccc21
·	-0.7	·	·	·	·	·	5.0	·	O=C(NN=Cc1ccc(OC(F)F)cc1)c1ccc(NS(=O)(=O)c2cccs2)cc1
0.6	2.4	-68.1	i	-5.6	-1.5	32.3	1.0	-0.8	O=C(c1ccccc1)c1cc(-c2ccccc2)on1
·	39.9	·	·	·	·	·	3.6	·	O=c1c(O[C@H]2O[C@@H](CO)[C@H](O)[C@@H](O)[C@@H]2O)c(-c2ccc(O)cc2)oc2cc(O)cc(O)c12
2.9	0.2	35.9	i	-1.3	0.0	0.0	8.1	1.3	CN(Cc1ccccc1)C(=O)c1ccc2c(c1)OCO2
2.2	-2.7	28.1	i	-1.4	·	-0.4	-0.2	1.2	Nc1nc(OCc2ccccc2)c2[nH]cnc2n1
6.0	-1.6	10.4	i	4.7	-1.5	8.3	-8.3	1.7	CCOC(=O)NC1(NC2CCCCC2)Oc2ccccc2O1
-17.5	-1.2	30.3	i	-10.0	-0.9	2.2	14.6	0.8	Cc1c(N=C2NC(=O)/C(=C/c3ccc(O)cc3)S2)c(=O)n(-c2ccccc2)n1C
-5.2	-0.1	15.0	i	-7.6	3.2	1.3	1.0	0.4	CN(Cc1nc(-c2ccccn2)no1)S(=O)(=O)c1ccc(Cl)cc1
3.0	1.1	7.3	i	-4.8	4.6	-2.8	-3.2	-1.5	C=CCn1c(CCNC(=O)c2ccccc2F)nnc1SCC(=O)Nc1nc2ccccc2s1
-9.4	-1.7	21.0	i	-6.0	2.6	3.6	-0.4	0.6	O=C1CCC/C(=N/NC(=O)c2ccc(NS(=O)(=O)c3cccs3)cc2)C1
-6.7	1.3	16.1	i	-1.6	-1.3	7.3	2.6	-2.0	CCOc1ccc2nc(NC(=O)C3CCN(S(=O)(=O)c4cnc[nH]4)CC3)sc2c1
-14.2	13.4	5.5	i	-7.0	1.5	-1.9	-4.2	-0.9	COc1ccc2c(c1)C=C(C(=O)OCc1cccnc1)CO2
2.0	-4.3	3.3	i	-4.1	-0.2	6.8	2.4	12.6	N#Cc1ccc(NC(=O)Nc2cccc(C#N)c2)cc1
6.8	-1.8	23.4	i	0.7	0.0	-0.9	1.1	-2.4	COc1ccc(-c2nc(-c3ccc(NC(=O)c4ccncc4)cc3)no2)cc1OC
9.2	94.6*	25.6	i	-0.8	3.0	-0.6	4.6	-77.8*	O=C1NCCCc2c1oc1ccc(O)cc21
-4.5	-1.3	27.6	i	-1.9	3.5	2.6	-4.3	1.5	O=C1Nc2cc(C(=O)N3CCN(c4ccccn4)CC3)ccc2S/C1=C\c1ccccc1
55.2*	-2.3	-34.0	i	27.5	1.4	-1.5	4.3	1.8	O=C(/C=C/c1ccccc1Cl)NCCc1ccccc1
12.5	22.7	41.1	i	2.5	2.2	12.6	15.5	0.6	O=C(c1ccc(Br)o1)N1CCN(c2ccc3nnc(-c4ccccc4)n3n2)CC1
-1.4	0.8	18.6	i	0.1	3.6	-0.4	3.8	3.3	CCc1ccc(C2C(C(=O)O)c3ccccc3C(=O)N2C)cc1 (centres undefined)
2.3	1.9	30.7	i	-2.8	0.0	6.8	8.0	-1.6	Cc1cccc(N2CC(C(=O)Nc3nc4ccc(S(C)(=O)=O)cc4s3)CC2=O)c1C (centres undefined)
5.2	1.4	6.4	i	3.4	0.4	-0.5	-0.3	-12.0	COc1ccc2cc(C(N)=O)c(=Nc3ccccc3)oc2c1
-6.5	9.4	48.0	i	-8.7	-2.5	-0.4	16.8	-10.5	COc1ccc(N/N=C(/C(N)=O)C2=NC(C)(C)Cc3ccccc32)cc1
20.1	-9.0	0.0	i	3.3	-0.8	14.8	0.7	2.9	CCOC(=O)c1csc(-c2ccc3c(c2)CCO3)n1
-12.7	0.0	9.5	i	-0.6	-4.2	4.6	6.8	-3.8	COCCn1c(=NC(=O)CSC(C)=O)sc2cc(F)ccc21
10.0	-2.2	-8.3	i	4.7	0.2	-7.3	-1.7	2.2	C=CCNC(=O)Nc1ccc2nc(C)sc2c1
8.2	0.3	-92.4*	i	-2.7	4.6	16.6	-0.6	2.3	CCCCNC(=O)COC(=O)c1ccc(NS(=O)(=O)c2ccc3c(c2)OCCO3)cc1
-8.7	7.2	16.6	i	-4.5	3.1	2.8	4.7	-0.8	Cc1cccc(NS(=O)(=O)c2cc(C(=O)OCC(=O)Nc3cc(C)on3)ccc2C)c1
19.5	1.6	16.5	i	4.7	-2.5	0.2	-1.0	2.5	CCn1c(Cc2ccccc2)nnc1SCC(=O)Nc1ccc(C)cc1
-29.9	-4.5	6.9	i	-28.2	-2.7	3.5	-2.2	0.6	COc1ccc(-c2nc(-c3ccc(NC(=O)c4ccc(Br)o4)cc3)no2)cc1OC
-0.7	8.4	4.1	·	-9.2	4.2	-2.7	-0.8	0.7	COc1ccc2cc(C#N)c(N3CCOCC3)nc2c1
74.8*	1.8	-7.2	i	38.4	0.3	-2.1	1.5	-2.0	Cc1ccc(C2=NNC(C(O)C(O)C(O)C(C)O)S2)cc1 (centres undefined)
21.8	-2.6	23.8	i	6.4	-1.6	3.2	4.4	4.2	Cc1cc(C)c2nc(N3CCCN(C(=O)c4cnccn4)CC3)c(C#N)cc2c1
-0.9	-1.4	25.4	i	3.1	0.1	1.9	4.3	-1.9	N#Cc1ccc(COc2ccc(CCO)cc2-n2nc3ccccc3n2)cc1
·	-0.1	14.2	i	·	5.0	·	-10.0	-2.7	C=CCn1c(CCNC(=O)c2ccccc2F)nnc1SCC(=O)Nc1nc(C)cs1
·	8.8	-0.3	·	·	-0.3	-6.8	-0.4	-1.6	Cc1cc2n(n1)C(c1ccccc1)Nc1ccccc1-2 (centres undefined)
-5.1	3.0	·	i	-8.5	4.2	-7.9	0.7	1.9	COC(=O)C1=NN(c2ccc(C)cc2)C2C(=O)N(c3ccccc3OC)C(=O)C12 (centres undefined)
13.1	5.4	9.7	i	7.7	0.0	1.5	7.5	-0.1	Cc1nc(NC(=O)c2ccccc2)sc1Cc1ccc2c(c1)OCO2
-0.4	1.2	10.2	i	-4.3	0.0	5.4	2.8	0.2	CCCc1nc(NCc2ccncc2)c2nnn(Cc3ccccc3F)c2n1

# (more compounds)
HSF1 activator	GSK3A inh	AI-2 QS mod	PolyA inhibitor	HSF1 inh	HSP90 refold inh	Platelet DG rel	HDAC3 inh	GSK3B inh	mol
-9.0	23.9	11.5	i	-3.8	-3.8	-3.0	0.7	-21.6	CCC(=O)/C=C1\Sc2ccc(OC)cc2N1CC
-5.4	16.6	-18.6	i	-1.5	-3.5	-2.6	-0.8	-0.7	CCN(CC)CC(=O)Nc1ccc2c(c1)Nc1ccccc1CC2
-3.9	0.5	18.2	i	-2.6	1.5	-8.4	-3.1	1.4	COc1cc(/C=C2/SC(=O)NC2=O)ccc1OC(=O)c1ccco1
42.4	0.7	4.9	i	22.3	-4.9	-5.3	-4.9	-21.2	CC(CC(=O)c1cccs1)CC(=O)c1cccs1
8.7	-2.0	30.9	i	-9.0	-0.5	-4.0	2.4	1.1	O=C(COC(=O)c1ccc(NS(=O)(=O)c2ccc3c(c2)OCCO3)cc1)NC1CCS(=O)(=O)C1 (centres undefined)

# Among those listed so far, these have a furan ring, fused or not:
HSF1 activator	GSK3A inh	AI-2 QS mod	PolyA inhibitor	HSF1 inh	HSP90 refold inh	Platelet DG rel	HDAC3 inh	GSK3B inh	mol
-15.5	2.7	4.7	i	-8.1	2.5	-32.0	2.0	2.3	CN(C)C(CNc1ncnc2sc3c(c12)CCCC3)c1ccco1 (centres undefined)
9.2	94.6*	25.6	i	-0.8	3.0	-0.6	4.6	-77.8*	O=C1NCCCc2c1oc1ccc(O)cc21
12.5	22.7	41.1	i	2.5	2.2	12.6	15.5	0.6	O=C(c1ccc(Br)o1)N1CCN(c2ccc3nnc(-c4ccccc4)n3n2)CC1
-29.9	-4.5	6.9	i	-28.2	-2.7	3.5	-2.2	0.6	COc1ccc(-c2nc(-c3ccc(NC(=O)c4ccc(Br)o4)cc3)no2)cc1OC
-3.9	0.5	18.2	i	-2.6	1.5	-8.4	-3.1	1.4	COc1cc(/C=C2/SC(=O)NC2=O)ccc1OC(=O)c1ccco1

# Some of the compounds tested (hit frequency here may not be typical).
